# Insulin prom inh = TRM-6 insulin promoter activity inhibition; actives 0.9% (n = 130,000); inhibition, % at 2 µM; TRM-6 cells (human fetal islet line), insulin promoter-eGFP reporter, imaging; reporter expression induced with tamoxifen;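 active = inhibition above the mean plus 3 SD, with well images judged a real hit on visual review, cut at about 60% in these data, passing the limit was not always enough; inconclusive = inhibition over the cutoff but images rejected on review; inactive = inhibition not above the cutoff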
# HSV augment = increases HSV replication in cells; maximum fold increase; AID 1956; actives 0.005% (n = 220,000); HSV replication augmentation in cells, fold increase;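 active = peak rise of 1.5-fold or more in the series; inconclusive = self-fluorescent or not available for retest; tested in PC3 cells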;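 note: first round at 10 µM; read as green reporter fluorescence; hits show the peak of a series up to 25 µM; 1 = signal of infected wells without compound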
# GALR2 ag = agonists of human galanin receptor 2 (GALR2). O43603. actives 0.48% (n = 140,000). activation, %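 (tested at 5 µM)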. GALR2-expressing cells, agonist activation read-out;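 active = above mean plus 3 SD of all compounds, about 5% in these data, not always enough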;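 note: 0% = vehicle buffer wells and 100% = reference agonist at full effect; tested in CHO reporter cells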
# Target sequence (O43603 whole entry, looked up): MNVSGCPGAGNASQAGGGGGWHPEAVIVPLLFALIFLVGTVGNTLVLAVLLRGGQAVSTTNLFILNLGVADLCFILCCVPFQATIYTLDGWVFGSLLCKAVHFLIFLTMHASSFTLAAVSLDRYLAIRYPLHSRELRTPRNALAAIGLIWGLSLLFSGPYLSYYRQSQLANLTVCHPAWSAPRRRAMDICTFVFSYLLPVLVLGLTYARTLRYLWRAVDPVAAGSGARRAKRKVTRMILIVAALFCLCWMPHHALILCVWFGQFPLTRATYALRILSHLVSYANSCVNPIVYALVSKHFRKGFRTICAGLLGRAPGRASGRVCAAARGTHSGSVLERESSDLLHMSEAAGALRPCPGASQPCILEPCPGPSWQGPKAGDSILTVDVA
# RGS16-Gao = regulators of human RGS16-Galphao interaction | O15492+P09471 | bead-based flow cytometry RGS16-Galphao binding, fluorescence; actives lie on both sides | binding response (% of control), % at 10 µM | actives 0.38% (n = 220,000) | AID 1441;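 active = below 25% or above 175%, edge rows of some plates excepted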;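 note: Galphao activated by GDP with aluminum fluoride before binding; 100% = wells without compound and 0% = beads without RGS; some results beyond the cut were filed as inactive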
# Target sequence (O15492 whole entry, looked up): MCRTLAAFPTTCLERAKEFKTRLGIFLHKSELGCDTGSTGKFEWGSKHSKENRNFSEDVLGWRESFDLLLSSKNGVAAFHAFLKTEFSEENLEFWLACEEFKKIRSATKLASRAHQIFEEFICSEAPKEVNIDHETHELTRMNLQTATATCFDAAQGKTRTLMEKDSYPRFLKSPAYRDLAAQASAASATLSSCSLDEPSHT
# Target sequence (P09471 whole entry, looked up): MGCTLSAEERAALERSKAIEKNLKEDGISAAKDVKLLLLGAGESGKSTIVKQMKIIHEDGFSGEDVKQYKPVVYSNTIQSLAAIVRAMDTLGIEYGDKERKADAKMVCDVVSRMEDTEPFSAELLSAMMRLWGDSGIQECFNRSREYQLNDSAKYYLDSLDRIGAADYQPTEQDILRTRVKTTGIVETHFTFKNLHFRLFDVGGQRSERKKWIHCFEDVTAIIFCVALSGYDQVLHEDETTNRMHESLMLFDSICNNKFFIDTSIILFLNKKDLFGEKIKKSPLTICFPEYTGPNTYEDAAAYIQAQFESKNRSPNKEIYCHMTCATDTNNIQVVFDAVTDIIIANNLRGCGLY
# PKD1 kinase inh = blocks activity of human protein kinase D1; Q15139; PKD1 kinase fluorescence polarization assay; inhibition, %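 (about 10 µM by stock and volumes)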; actives 0.056% (n = 200,000);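 active = inhibition of 50% or more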;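 note: controls were vehicle for no effect and a reference inhibitor for full effect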
# Insulin prom inh cell count = also measured in Insulin prom inh; calls as there; normalized cell count, %; measured here: cell count, toxicity; reference of the scale not given here;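 cells exposed to compound for 48 h; stained nuclei by imaging scaled within each plate; lower means fewer cells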
# HSV augment primary fold = second read-out of HSV augment, no call of its own (marks repeat the call); fold increase; compound at 10 µM; measured here: primary screen fold increase 10 uM; tested in PC3 cells;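 GFP signal in the first replicate; 1 = infected wells without compound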
# * = called active by the depositor; i = inactive; ? = inconclusive; . = not tested or not shown.
SMILES,Insulin prom inh,Insulin prom inh cell count,HSV augment,HSV augment primary fold,GALR2 ag,RGS16-Gao,PKD1 kinase inh
Cc1cc(C)c(NC(=S)N(CCc2ccncc2)C(C)C)c(C)c1,-7.1,79.5,i,0.95,.,100.3,4.3
COc1ccc(NC(=S)N2CCCN(Cc3cccc(Cl)c3)C2)cc1,14.3,114.1,i,0.83,.,100.2,-5.1
CCOC(=O)c1c(C=O)c(C)n(Cc2ccccc2Cl)c1C,-10.0,185.8,i,0.95,2.2,94.5,3.1
O=C(COc1ccc(Br)cc1)NCc1ccccn1,-45.2,80.3,i,1.05,-2.5,107.0,4.4
Cc1nn(Cc2ccccc2)c(Cl)c1C(=O)NCc1ccco1,.,.,i,0.95,.,102.6,1.9
CCCC(=O)n1nc(NCc2ccc(OC)cc2)nc1NCc1ccc(OC)cc1,21.4,57.1,i,0.99,.,100.2,4.7
Cc1nn(Cc2ccc(Cl)c(Cl)c2)c(C)c1NC(=O)c1cc(-c2ccco2)on1,.,.,i,0.91,-0.5,98.4,14.5
CC(C)(C)OC(=O)NC(CCNC=C1C(=O)OC(C)(C)OC1=O)C(=O)O (centres undefined),-21.1,155.6,i,0.95,-0.9,100.8,-1.9
CCOC(=O)/C(N=Nc1sc(C(=O)OCC)c(C)c1C(=O)OCC)=C(\C)O,.,.,i,0.89,-1.1,97.1,-6.5
CCc1nc(N[C@@H](CC(C)C)C(=O)O)c2oc3ccccc3c2n1,44.7,90.0,i,0.74,-0.9,104.3,-4.1
Cc1ccc(C)c(N(CC(=O)NC(C)(C)C)C(=O)CNC(=O)c2cccs2)c1,.,.,i,0.93,.,101.0,-2.8
CC(OC(=O)c1nc(-c2ccccc2)n(-c2ccccc2)n1)C(=O)Nc1cc(Cl)cc(Cl)c1 (centres undefined),.,.,i,1.07,-0.2,104.1,-9.2
CCC(C)NC(=O)Cn1cnc2sc(C)cc2c1=O (centres undefined),.,.,i,1.04,-2.6,97.5,20.8
O=C(CC1C(=O)NCCN1CC1CCCCC1)NC1(c2ccccc2)CC1 (centres undefined),.,.,i,1,.,98.9,-7.9
COc1ccc(C(=O)/C=C/c2ccc(OC)c(O)c2)c(F)c1,.,.,i,0.93,0.0,101.2,3.5
CC1CN(C(=O)c2cccc(S(=O)(=O)Nc3cc(Cl)ccc3Cl)c2)CC(C)O1 (centres undefined),.,.,i,1.02,.,99.2,3.9
CC/C(O)=C1\C(=O)CC(c2ccccc2)CC1=NC(C)C (centres undefined),24.1,93.4,i,1.01,0.1,102.6,-5.3
CCN(C(=O)c1ccc(Br)cc1)c1ccccc1,0.0,91.1,i,1.03,.,95.8,-6.1
CC(C)OC(=O)Cn1nnc(-c2ccccc2)n1,0.0,172.3,i,1.14,-0.1,102.4,-3.8
c1csc(-c2csc(-c3cccs3)n2)c1,.,.,i,0.89,-0.1,103.4,4.0

# In a second layout: entries from further up.
# Each structure is followed by: Insulin prom inh | Insulin prom inh cell count | HSV augment | HSV augment primary fold | GALR2 ag | RGS16-Gao | PKD1 kinase inh
CC1CN(C(=O)c2cccc(S(=O)(=O)Nc3cc(Cl)ccc3Cl)c2)CC(C)O1 (centres undefined)
    . | . | i | 1.02 | . | 99.2 | 3.9
CC/C(O)=C1\C(=O)CC(c2ccccc2)CC1=NC(C)C (centres undefined)
    24.1 | 93.4 | i | 1.01 | 0.1 | 102.6 | -5.3
CCN(C(=O)c1ccc(Br)cc1)c1ccccc1
    0.0 | 91.1 | i | 1.03 | . | 95.8 | -6.1
CC(C)OC(=O)Cn1nnc(-c2ccccc2)n1
    0.0 | 172.3 | i | 1.14 | -0.1 | 102.4 | -3.8

# More records:
SMILES,Insulin prom inh,Insulin prom inh cell count,HSV augment,HSV augment primary fold,GALR2 ag,RGS16-Gao,PKD1 kinase inh
CNC(=O)Nc1cc(C(C)(C)C)no1,-100.0,103.8,i,0.81,-1.3,102.7,-3.1
NC(=O)C12CCCC(Br)(CCC1)C2,.,.,i,1.03,.,93.8,.
Cc1ccc(C(=O)NCCCn2ccnc2)cc1[N+](=O)[O-],33.3,65.9,i,0.97,-2.7,102.5,-1.2
CCC(C)c1ccc(S(=O)(=O)N2CCN(C(=O)COc3ccc4c(C)cc(=O)oc4c3)CC2)cc1 (centres undefined),11.9,82.2,i,1.07,0.4,98.2,-3.3
Cc1ccc(C(=O)OCC(=O)Nc2cc(S(=O)(=O)N3CCOCC3)ccc2C)cc1,.,.,i,0.96,.,105.0,-6.7
CCONC(=O)Nc1ccccc1[N+](=O)[O-],.,.,?,.,0.0,114.5,-0.4
Cc1[nH]n(-c2ccc([N+](=O)[O-])cc2)c(=O)c1C=NCCc1c[nH]c2ccccc12,-78.6,100.8,i,0.81,-0.9,102.1,-1.8
CSc1nc(-c2ccco2)nn1S(=O)(=O)c1ccccc1,-4.2,128.6,.,.,-1.4,103.9,4.5
NS(=O)(=O)c1ccc(CCNc2nc3c(-c4cccc(F)c4)nnn3c3ccccc23)cc1,0.0,113.3,i,0.67,11.1*,111.8,-8.7
Cc1cc(SCC(=O)N(C)c2c(N)n(Cc3ccccc3)c(=O)[nH]c2=O)nc2ccccc12,.,.,i,1.12,.,102.5,-1.9
O=C(O)c1ccccc1S(=O)CCO (centres undefined),16.7,96.7,i,1.03,-2.2,102.8,4.7
CCc1ccc2nc(SCC(=O)N(CC)CC)c(C#N)cc2c1,0.0,99.1,i,0.81,-1.9,100.8,0.4
COc1cccc(-n2c(CNc3ccc(F)cc3)nnc2SCC(N)=O)c1,32.5,139.0,i,0.96,-0.6,98.8,-7.7
O=C(Nc1ccc(Cl)cc1)Nc1ccc2c(c1)N1CCN=C1S2,36.4,82.4,i,0.76,-5.9,97.3,-4.0
CCC(=O)c1ccc2ncccc2c1,-13.9,93.8,i,0.94,-1.7,97.5,-0.5
Cc1ccc(C(=O)n2c(=S)nc3ccccn32)cc1,5.1,87.2,.,.,-0.6,99.5,-0.2
Cc1ccc(N=CC=C2OC(C)(C)C(C)(C)O2)cc1,20.7,130.4,i,1.04,0.8,101.9,16.1
Cc1cnc(C(=O)OCC(=O)Nc2ccc(C)c(S(=O)(=O)N3CCCCCC3)c2)cn1,.,.,i,1.07,.,100.5,-13.7
COc1ccc(S(=O)(=O)n2nc(OC(=O)c3ccncc3)cc2N)cc1,.,.,i,0.9,.,89.2,5.4
CCS(=O)(=O)N1Cc2ccccc2CC1C(=O)Nc1ccc(F)cc1 (centres undefined),.,.,i,0.81,.,96.0,.

# The final 4 compounds of the section above come first, to join the parts:
SMILES,Insulin prom inh,Insulin prom inh cell count,HSV augment,HSV augment primary fold,GALR2 ag,RGS16-Gao,PKD1 kinase inh
Cc1ccc(N=CC=C2OC(C)(C)C(C)(C)O2)cc1,20.7,130.4,i,1.04,0.8,101.9,16.1
Cc1cnc(C(=O)OCC(=O)Nc2ccc(C)c(S(=O)(=O)N3CCCCCC3)c2)cn1,.,.,i,1.07,.,100.5,-13.7
COc1ccc(S(=O)(=O)n2nc(OC(=O)c3ccncc3)cc2N)cc1,.,.,i,0.9,.,89.2,5.4
CCS(=O)(=O)N1Cc2ccccc2CC1C(=O)Nc1ccc(F)cc1 (centres undefined),.,.,i,0.81,.,96.0,.
O=C(CN1C(=O)CSC1=O)Nc1ccccc1N1CCOCC1,35.7,87.6,i,0.83,0.6,100.9,9.8
COc1cc(OC)c(C2C(C#N)=C(N)Oc3cc(C)n(CCCN4CCOCC4)c(=O)c32)cc1OC (centres undefined),51.7,92.1,i,0.85,-1.6,91.6,1.9
O=C(c1cccs1)N1N=C(c2ccccc2)CC1c1ccc(O)cc1 (centres undefined),37.5,136.8,i,0.93,-0.9,105.2,-8.7
Clc1ccc(COc2ccccc2-c2ccnc3ncnn23)cc1,-9.1,97.6,i,0.82,.,103.5,-5.6
CC(C)c1ccc(N(CC(=O)NCCSCc2ccco2)S(C)(=O)=O)cc1,.,.,i,1,.,101.8,-0.4
Cc1csc(NC(=O)CSc2nnc3c4ccccc4nc(C(C)(C)C)n23)n1,-22.6,73.8,i,0.69,-1.0,100.7,-2.8
CCOC(=O)c1oc2c(c1C)/C(=N/O)CCC2,87.5*,112.3*,.,.,-0.7,105.0,-8.3
CC(C)=C1C2CCC1C(C(=O)NCCc1ccccc1)C2C(=O)O (centres undefined),-50.0,96.8,i,1.06,0.9,84.8,8.2
Cc1ccc2c(c1)CCCN2C(=O)c1ccco1,16.7,141.9,i,0.92,-2.0,97.5,-2.8
Cc1c(NS(=O)(=O)c2cccc3nsnc23)c(=O)n(-c2ccccc2)n1C,.,.,i,0.91,-0.8,101.5,-0.2
CCOc1ccc(C2C(C(=O)Nc3ccc(F)cc3)=C(C)Nc3nc(CCCO)nn32)cc1 (centres undefined),.,.,i,1.24,0.0,107.2,5.7
O=C(O)CSc1cc(C(=O)c2ccccc2O)cn2c(=O)c3c(-c4ccccc4)csc3nc12,.,.,i,0.91,.,100.4,-7.1
Cc1ccc(C(=O)NC2c3ccccc3-c3ccccc32)cc1,-5.9,53.8,i,0.82,0.5,99.2,0.0
O=C(O)CC(CCc1ccccc1)OC1OC(CO)C(O)C(O)C1O (centres undefined),.,.,i,1,.,93.3,.
CCOC(=O)Nc1ccc(S(=O)(=O)NCc2ccccc2)cc1,.,.,i,0.93,-1.2,100.8,-3.7
CC(C)Cn1c(=O)c(C(=O)Nc2ccccc2S(N)(=O)=O)c(O)c2ccccc21,-134.4,60.6,i,0.92,-1.3,103.6,-1.3
Cc1ccc(NC(=O)c2ccc3nc[nH]c3c2)c(O)c1,0.0,87.2,i,0.97,.,107.7,-1.0
O=C1c2ccccc2CN1CCNS(=O)(=O)c1ccc(Cl)cc1,13.2,84.4,i,0.96,-0.1,102.2,-9.2
O=[N+]([O-])c1cccc(N/N=C/c2cc([N+](=O)[O-])ccc2O)c1,.,.,i,0.97,.,105.0,1.7
CN(C1CCS(=O)(=O)C1)S(=O)(=O)c1ccc(N2CCCC2=O)cc1 (centres undefined),-64.7,149.6,i,1.03,-2.1,105.6,-1.3
O=C(NC1CCCCCCC1)c1ccco1,-3.0,154.0,i,1.07,-3.0,84.3,-18.0
O=C(CN1C2=NCCN2c2ccccc21)N1CCOCC1,-7.1,218.4,i,1.09,-0.5,103.4,-3.1
COCCn1c(=NC(=O)CSC(C)=O)sc2cc(OC)ccc21,0.0,78.8,i,0.9,0.7,97.6,3.4
Cc1csc(NC(=O)CCc2c(C)nc3cc(-c4cccc(F)c4)nn3c2C)n1,-5.0,132.1,.,.,1.0,97.5,-5.3
O=C(Nc1nc(-c2ccncc2)cs1)c1ccc(S(=O)(=O)N2CCOCC2)cc1,.,.,.,.,-2.5,102.1,-2.2
CC(CN(C)Cc1ccccc1)OC(=O)c1ccc2c(c1)OCCO2 (centres undefined),3.9,97.9,i,0.96,-1.6,91.4,-1.2
CN(C)c1cc(O)c(C(=S)Nc2ccccc2)c(N(C)C)c1,-92.9,85.4,.,.,-3.2,102.0,-10.1
CCOC(=O)c1cc2cc(C)ccc2[nH]1,24.2,83.8,i,0.913,-1.0,100.8,3.9
COc1cc(C(=S)N2CCCC2)cc(OC)c1O,38.9,124.6,i,0.7,0.2,104.8,-0.7
CCc1nnc(NC(=O)c2ccncc2)s1,-22.6,125.2,i,0.993,-0.8,90.9,4.3
COc1ccc(Sc2nc3ccccc3n3c(C(F)(F)F)nnc23)cc1,21.2,80.1,i,0.9,-1.8,98.6,0.8
COc1ccc(CCNC(=O)COC(=O)CCC(=O)c2ccc(F)cc2)cc1OC,.,.,i,1.07,.,102.9,-4.0
Cc1cc(C)c(S(=O)(=O)O)c(C)n1,.,.,i,1.09,-3.2,103.8,-12.2
O=C(CCc1nnc(CCCCc2ccccc2)o1)NCc1cc(F)ccc1F,.,.,i,0.89,.,96.4,-0.2
CC1Cc2ccccc2N1Cc1nc2cc(Cl)ccc2c(=O)[nH]1 (centres undefined),13.0,114.7,i,0.98,-2.7,105.0,-2.1
CC(=O)Nc1cc([N+](=O)[O-])ccc1N1CCOCC1,29.4,90.6,i,0.98,.,99.1,1.6
CC1CC(C)CN(CCCn2c(=S)[nH]c3ccccc3c2=O)C1 (centres undefined),16.1,110.6,i,0.81,0.1,103.7,-4.6
CCOC(=O)c1c(NC(=O)CCN2C(=O)c3ccccc3C2=O)sc(C(=O)OC(C)C)c1C,-96.7,122.2,i,0.92,-2.8,82.1,-6.0
OCC1CCCCN1CCNCc1cn[nH]c1-c1cccc2ccccc12 (centres undefined),.,.,i,0.92,.,99.8,.
O=c1[nH][nH]c(=O)c2c(NS(=O)(=O)c3ccccc3)cccc12,31.4,116.7,i,0.89,.,101.1,16.5
Oc1c(I)cc(I)c2cccnc12,-14.3,78.4,i,1.04,-0.1,99.2,-2.9

# Compound activity from PubChem.
